From PubChem
TRPML1 ag: agonists of human TRPML1 channel; Q9GZU1; TRPML1-expressing cells, Ca2+ dye fluorescence, FDSS; host cell line not named in the record; reference of the full effect not given here; activation, % (test concentration not listed); hit rate 0.12% among 410,000; in the data active = activation above about 50%; inconclusive = about 30% to 50%; inactive = below about 30%; also: 0% is about no effect; the text of the record puts the active cut at 80%
Target sequence (Q9GZU1 whole entry, looked up): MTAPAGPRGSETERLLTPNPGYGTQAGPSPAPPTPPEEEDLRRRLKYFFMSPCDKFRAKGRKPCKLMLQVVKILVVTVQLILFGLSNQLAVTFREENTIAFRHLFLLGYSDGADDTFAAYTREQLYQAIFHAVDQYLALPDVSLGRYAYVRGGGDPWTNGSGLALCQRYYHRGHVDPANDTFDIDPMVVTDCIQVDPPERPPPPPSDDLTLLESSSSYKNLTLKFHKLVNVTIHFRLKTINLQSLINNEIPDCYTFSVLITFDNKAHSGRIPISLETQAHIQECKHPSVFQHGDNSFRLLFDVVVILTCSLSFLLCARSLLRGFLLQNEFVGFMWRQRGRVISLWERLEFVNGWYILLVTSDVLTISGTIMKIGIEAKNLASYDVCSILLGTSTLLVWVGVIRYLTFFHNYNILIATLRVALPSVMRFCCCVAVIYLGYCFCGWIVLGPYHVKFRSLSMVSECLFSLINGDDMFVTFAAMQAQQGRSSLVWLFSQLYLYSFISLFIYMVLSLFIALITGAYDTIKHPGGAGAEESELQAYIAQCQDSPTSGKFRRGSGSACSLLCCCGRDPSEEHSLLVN
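In this qHTS format, compounds were pin-transferred onto Ca8-dye-loaded TRPML1-DL cells induced with Tet overnight, and intracellular Ca2+ fluorescence was recorded kinetically for 110 s after a 10 s baseline. A subsequent 4uM final 54-4 (EC80) addition followed by a second 110 s read served as the antagonist phase.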
Menin MLL FP FL: displaces fluorescein MLL peptide from human menin; AID 1766; 290,000 tested, under 10 active; Fluorescence polarization, fluorescein-MLL peptide displacement from menin; FP activity change, % at 61.4 µM; inconclusive = falling polarisation curve, or a change in total fluorescence; inactive = total fluorescence flat and polarisation flat or rising; no compound was filed as active; the % refers to the polarisation; negative = inhibition;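 also: % of control where 0% means no effect; inhibitors lower the polarisation; unlabelled MLL peptide was the positive control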
TRPV1 PAM: potentiators of human vanilloid receptor 1 (TRPV1) | Q8NER1 | TRPV1-expressing cells, Fluo-8 calcium influx, capsaicin EC20 potentiation; host cell line not named in the record; control for the full effect not named in the record | potentiation, % at 8.33 µM | hit rate 0.02% among 320,000 | AID 540277; active means potentiation above 80%; inconclusive means 30% to 80%; inactive means below 30%; also: 0% is about no effect
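TRPV1-expressing cells were cultured overnight at 35.5C and loaded with Fluo-8 calcium dye for 40 to 90 min at room temperature. After a 10 s baseline, compound was added and calcium influx was read kinetically for 3 min (ex 480/em 520 nm).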
PINK1 modulator: PINK1 expression modulation. Potency, µM (top dose mostly 76.6 µM), inactives show at the top dose activation (PINK1 increase), most hits filed as activators. AID 624263. PINK1 immunofluorescence, high-content cytometry, 24 h. hit rate 0.2% among 410,000; active = well fitted activation curve with a large enough effect; inconclusive = small, poorly fitted or top-dose-only effect; inactive = flat fitted curve, though single readings scatter; cell line not stated here;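 also: potency is read from the fitted curve at half-maximal effect; % of control where 0% means no effect; nearly all actives have a fitted effect of over 65% in size; a mitochondrial uncoupler was the plate control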
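Fluorescence from anti-PINK1 antibody, together with nuclear and cell stains, was scanned on a laser-scanning cytometer. Before staining, stable-line cells were incubated 24 hours with compounds at 5 concentrations; primary antibody 12 h at 10 degrees C.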
TRPML1 inh: inhibitors of human TRPML1 channel | Q9GZU1 | TRPML1-inducible cells, Ca2+ dye fluorescence, FDSS; hits give low values; inhibition of EC80 agonist-evoked calcium signal | activity change, negative = inhibition, % (no concentration beside the values) | hit rate 0.02% among 390,000; in the data active means activity change below about -50%; inconclusive means about -30% to -50%; inactive means above about -30%;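 also: stimulus is agonist 54-4 at its EC80 concentration; % is scaled to controls: 0 for no effect and ±100 for the full control effect; compound concentration not given in the record; the text of the record puts the active cut at -80%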
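Calcium fluorescence in TRPML1-DL cells induced overnight with Tet: a 110 s read after compound pin addition, then a 110 s antagonist read after challenge with 54-4 at 4 uM final (EC80).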
Sfp inh: blocks B. subtilis Sfp PPTase activity | Q9F4F7 | Biochemical Sfp PPTase activity, qHTS | hit rate 3.5% among 310,000 | Potency, µM, without a hit: max response, negative = inhibition, most hits filed as inhibitors; active = well fitted inhibition curve with a large enough effect; inconclusive = small, poorly fitted or top-dose-only effect, or another doubt; inactive = no such curve, though single readings can be large or run the other way;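 also: the enzyme is Sfp with the accession as filed and its product quenches rhodamine fluorescence; potency is read from the fitted curve at half-maximal effect; 0% = enzyme reaction without inhibitor and -100% = no enzyme wells; top concentration of the series not given in the record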
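Buffer: 50 mM Hepes-Na pH 7.6, 10 mM MgCl2, 0.01% Nonidet P-40, 0.01% BSA. Enzyme 15 nM, pre-exposed to compound 15 min; substrates then added and fluorescence change tracked over 30 min.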
ClpP mod: qHTS Assay for Activators of ClpP. ATP-dependent Clp protease proteolytic subunit (Bacillus subtilis (strain 168)), P80244. purified B. subtilis ClpP, FRET peptide cleavage, 20 min. Potency, µM (series often up to 57.5 µM), without a hit: at the highest dose activity change, negative = active. hit rate 1.9% among 340,000. AID 651965, 2013; active = well fitted falling curve with a large enough effect; inconclusive = small, poorly fitted or top-dose-only effect; inactive = no such curve, though single readings can be large or run the other way; also: potency is read from the fitted curve at half-maximal effect; the source files actives as falling curves though it sought activators and does not explain the sign; nearly all actives have a fitted effect of over 65% in size; many hits overshoot -100%
Target sequence (P80244 whole entry, looked up): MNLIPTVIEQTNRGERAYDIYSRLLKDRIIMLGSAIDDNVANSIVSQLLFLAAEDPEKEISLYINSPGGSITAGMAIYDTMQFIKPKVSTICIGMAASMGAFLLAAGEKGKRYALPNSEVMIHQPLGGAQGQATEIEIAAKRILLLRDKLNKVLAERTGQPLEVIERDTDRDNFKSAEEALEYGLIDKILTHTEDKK
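Buffer: 100 mM Tris/HCl pH8, 100 mM KCl, 0.05% low protease BSA, 2.5% glycerol, 0.01% Tween-20. ClpP 10 microg/mL final; 20 min RT; delta FRET normalized to ADEP and DMSO controls.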
The depositor's hits bear a star; ? = inconclusive; . = no result given; [ ] = dose if it differs, or a comment.

Start of the listing, in advance (2 entries):
SMILES	TRPML1 ag	Menin MLL FP FL	TRPV1 PAM	PINK1 modulator	TRPML1 inh	Sfp inh	ClpP mod
CC(C)c1ccc(NC(=O)C2=NNC(=O)CC2)cc1	0.3	-1.2	-21.6	-0.7%	-13.6	14.3%	1.0%
COc1cc(-c2nc(S(=O)(=O)c3ccc(Br)cc3)c(N3CCOCC3)o2)cc(OC)c1OC	-0.7	.	.	2.3%	-7.2	.	-11.9%

Main list, from the start:
SMILES	TRPML1 ag	Menin MLL FP FL	TRPV1 PAM	PINK1 modulator	TRPML1 inh	Sfp inh	ClpP mod
CC(C)c1ccc(NC(=O)C2=NNC(=O)CC2)cc1	0.3	-1.2	-21.6	-0.7%	-13.6	14.3%	1.0%
COc1cc(-c2nc(S(=O)(=O)c3ccc(Br)cc3)c(N3CCOCC3)o2)cc(OC)c1OC	-0.7	.	.	2.3%	-7.2	.	-11.9%
Cc1cc(C)c(S(=O)(=O)Nc2ccc(-c3ccc(N4CCCCCC4)nn3)cc2)c(C)c1	-0.4	.	.	0.6%	45.1	.	-10.9%
NC(=O)c1sc2nc(-c3cccs3)ccc2c1N	0.1	6.4	11.7	0.4%	6.8	-13.1%	3.5%
COc1ccccc1N(CC(=O)NCC1CCCO1)C(=O)CCC(=O)Nc1nccs1 (configuration not stated)	-0.3	4.6	4.4	3.4%	-8.5	1.3%	-1.8%
Cn1c(=O)c2c(nc(NCC3CCCO3)n2Cc2ccccc2)n(C)c1=O (configuration not stated)	0.3	1.3	-28.0	-1.7%	38.3	-3.3%	28.2µM*
O=C(c1cc2cc(C(F)(F)F)ccc2s1)N1CCOCC1	0.6	0.7	-10.9	0.6%	23.8	0.2%	.
Cc1cccc(Nc2nc(N)nc(-c3oc4ccccc4c3C)n2)c1	1.2	8.6	1.6	6.1%	-2.4	-14.6%	.
COc1ccc(C2C(C(=O)O)c3ccccc3C(=O)N2Cc2ccco2)cc1 (configuration not stated)	0.5	-1.9	-1.1	1.3%	9.6	5.7%	.
O=C(Nc1nc(=O)c2ccccc2s1)c1ccc(F)cc1	0.1	3.3	8.0	-2.5%[38.3 µM]	3.8	56.2µM*	0.5%
COc1ccc(CNC(=O)C(C)OC(=O)Cn2cnc3c2c(=O)n(C)c(=O)n3C)cc1 (configuration not stated)	0.9	.	15.1	0.0%	0.1	.	-0.2%
OC1=C(O)c2nc3cc(F)ccc3nc21	1.3	3.2	7.2	-0.4%	-2.7	39.8µM*	-2.1%
O=C(NCCc1c[nH]c2ccccc12)C1CCCN(S(=O)(=O)c2ccccc2)C1 (configuration not stated)	1.3	0.6	16.0	2.2%	6.5	9.0%	.
Nc1ccc(-c2nc3c(Cl)cc(N)cc3[nH]2)cc1	1.4	0.7	-11.8	3.0%	1.0	9.8%	?
O=C(/C=C/c1ccc2c(c1)OCO2)Nc1cc(S(=O)(=O)N2CCOCC2)ccc1N1CCOCC1	-0.1	8.4	-39.6	7.5%	3.8	-17.6%	1.1%
Cc1ccccc1Cn1c(=O)n(CCC(=O)NCc2ccco2)c(=O)c2sccc21	-0.2	.	.	1.7%	-5.5	.	3.4%
CCCN(CCC)S(=O)(=O)c1nc2nc(C)cc(C)n2n1	0.0	-1.1	-7.9	1.1%	-20.4	12.6%	-3.2%
Nc1c(C(=O)NCc2ccco2)c2nc3ccccc3nc2n1CCc1ccccc1F	0.2	4.7	-15.8	-0.6%	9.2	56.2µM*	28.2µM*
COc1cccc(CNc2nc3ccccc3n2C(C)C)c1O	-0.4	-7.0	?	3.4%	-0.2	-3.7%	.
CN1CCC(OC(=O)C23CCC(C)(C(=O)O2)C3(C)C)CC1 (configuration not stated)	1.1	-0.1	-0.4	.	-3.7	8.9%	-0.8%
C/C(=N\NC(=O)C(O)c1ccccc1)c1ccc(Cl)s1 (configuration not stated)	-0.7	3.0	-18.4	-0.2%	19.2	13.5%	1.2%
O=C(NCCN1CCOCC1)C1CCN(c2ncnc3c2sc2cccc(F)c23)CC1	0.7	-1.1	9.4	2.2%	52.9	5.1%	-6.2%
CN(Cc1nc(Cc2cccc(C(F)(F)F)c2)no1)C1CC(C)(C)NC(C)(C)C1	0.0	-2.7	3.5	0.0%	-3.7	-0.4%	.
O=C(NCC(c1ccccc1Cl)N1CCCC1)C1CCN(C(=O)Nc2ccccc2)CC1 (configuration not stated)	1.7	.	-2.4	-0.7%	2.7	.	0.4%
CCc1cccc(C)c1NC(=O)c1cnn(-c2ccc(OC)cc2)c1C1CCN(C(=O)OC(C)(C)C)CC1	2.1	.	.	0.1%	23.0	.	0.9%
CCOc1ccccc1CN1CCC(n2nccc2NC(=O)CCc2ccccc2)CC1	5.8	4.8	-10.3	0.0%	13.3	-17.7%	0.2%
CC(=O)c1ccc(Nc2nc(C)nc3c2oc2ccccc23)cc1	.	-1.8	7.0	.	.	4.3%	.
Cc1cc(=O)[nH]c(-n2[nH]c(C)cc2=O)n1	-0.6	2.6	-0.3	-0.8%	0.8	22.4µM*	-7.2%
Cc1ccsc1CNCC(O)c1ccccc1 (configuration not stated)	0.7	-0.9	4.5	-1.5%	-7.2	-8.8%	.
Cc1ccc(SCCNC(=O)CN(c2ccc3c(c2)OCO3)S(C)(=O)=O)cc1	0.4	2.9	-7.5	-2.3%	-10.7	20.5%	-8.7%
CN(C)c1ccc(CNC(=O)CCCN2C(=O)c3cccnc3Oc3ccc(Cl)cc32)cc1	2.0	.	.	0.8%	-2.0	.	-0.9%
COc1cc(NC(=S)NCc2ccco2)cc(OC)c1OC	-0.6	0.0	16.7	0.6%	-4.5	-6.2%	-1.1%
Cc1ccc(-n2nc(CO)c(C(=O)NCCc3ccccc3)n2)cc1	1.8	.	.	-0.9%	-12.6	.	10µM*
Cc1cc(=O)oc2cc(OC(C)C(=O)NCCc3ccc(S(N)(=O)=O)cc3)ccc12 (configuration not stated)	0.2	-4.8	1.8	0.2%	27.8	13.9%	3.6%
CC1(C)CC(=O)C(C(c2ccc(Br)cc2)C2C(=O)CC(C)(C)CC2=O)C(=O)C1	0.0	-5.7	12.1	1.7%	-11.6	2.8%	.
Cc1cccn2c(=O)c3cc(C(=O)NCCCn4ccnc4)n(C)c3nc12	0.2	-18.8	-13.7	?	-1.4	8.6%	?
O=C(NCc1ccccc1)C1c2ccccc2OCC(=O)N1Cc1ccccc1 (configuration not stated)	-0.8	.	.	-1.1%	.	.	-0.2%
Nc1nc(SCc2ccccn2)c2ncn(C3CCCC3)c2n1	1.9	.	.	-1.4%	14.6	.	.
O=C1c2sc3nc4n(c(=O)c3c2CCC1Br)CCCCC4 (configuration not stated)	-0.1	-2.8	7.0	1.9%	-0.6	20µM*	-1.4%
CCC(C)c1ccc(NC(=O)N2CCN(C(=O)C3CCCO3)CC2)cc1 (configuration not stated)	0.8	-3.7	-20.6	-0.9%	-23.2	16.8%	0.5%
Nc1c(-c2ccccc2)c(CSc2nc3ccccc3[nH]2)nn1-c1cccc(C(=O)O)c1	-0.7	2.2	17.5	0.0%	4.3	31.2%[activator]	.
CN(C)C1(CNC(=O)COc2ccc(C(C)(C)C)cc2)CCCCC1	0.4	.	.	0.6%	-0.4	.	0.6%
NS(=O)(=O)c1cccc(NC(=O)CSc2nnc(-c3ccccc3)o2)c1	1.3	.	.	-5.0%	-14.9	.	-12.7%
O=C(Nc1ccc(Cl)cc1)c1ccc2c(=O)n3c(nc2c1)CCCCC3	1.5	-4.6	-12.1	5.8%	23.3	5.9%	19.3%
CCN(C(=O)COC(=O)c1ccc(C)c(S(=O)(=O)N2CCOCC2)c1)C1CCS(=O)(=O)C1 (configuration not stated)	0.1	.	-10.3	-0.8%	4.8	.	2.0%
CC(C(=O)N1CCCC1)N(C)CC(=O)Nc1cccc(F)c1 (configuration not stated)	-0.5	.	-3.4	0.9%	-6.8	.	-1.5%
O=C(c1ccc([N+](=O)[O-])s1)N1CCc2ccccc21	0.7	24.7	-6.1	1.5%	-16.4	2.1%	.
CC[C@]12c3[nH]c4ccc(Cl)cc4c3CCN1C(=O)[C@@H](CC(=O)NCCc1ccccn1)C[C@@H]2C(=O)N1CCN(C(=O)C2CC2)CC1	-0.4	.	.	0.3%	-11.5	.	0.0%
O=C(CSc1nnc(Cc2cc(=O)[nH]c(=O)[nH]2)n1-c1ccccc1)NCC1CCCO1 (configuration not stated)	-0.4	-13.5	-3.9	-2.7%	-13.9	11.9%	-0.3%
CCn1nc(C(=O)Nc2cccc(C(F)(F)F)c2)c(Cl)c1Cl	1.7	6.5	-7.8	0.7%	-0.3	7.4%	-0.5%

New compounds follow
SMILES	TRPML1 ag	Menin MLL FP FL	TRPV1 PAM	PINK1 modulator	TRPML1 inh	Sfp inh	ClpP mod
NC(N)=NC(N)=Nc1ccc(SC(F)(F)F)cc1	-0.3	0.6	-2.5	17.3%	21.4	?	-1.2%
CCCCn1c(=O)[nH]c(=O)c2c1nc(-c1ccc(C)c([N+](=O)[O-])c1)n2CC	-0.1	0.4	-12.6	-1.6%	4.8	1.3%	.
O=C(Nc1nccs1)c1cc([N+](=O)[O-])ccc1Cl	.	-1.4	3.3	1.0%	.	5.9%	-2.0%
C/C(=N\Nc1nncc2ccccc12)c1ccc(C(C)(C)C)cc1	0.2	-2.5	3.6	6.1%	-0.4	2.3%	0.6%
Cc1ccc(N2CC(C(=O)Nc3c(C)n(C)n(-c4ccccc4)c3=O)CC2=O)cc1 (configuration not stated)	-0.6	2.1	-3.4	0.1%	12.3	1.6%	2.6%
CCCCNC(=O)C1(C)CCCCN1C(=O)c1cc(-c2ccccc2)cs1 (configuration not stated)	-1.1	.	.	-0.7%	.	.	-3.1%
COc1ccc(CC(=O)Nc2ccc(C(=O)NC(C)(C)C)cc2)cc1	0.4	0.1	-19.7	1.5%	-2.1	11.4%	-3.2%
COc1ccc(S(=O)(=O)N(CC(=O)NCc2ccccn2)Cc2ccccc2)cc1	-0.1	2.8	2.5	-1.0%	-3.9	8.4%	.
N/C(=N\OC(=O)COc1ccc2ccccc2c1Br)c1ccncc1	.	-5.1	2.2	.	.	44.7µM*	.
c1ccc(NC2=NCCN2CC2CCCCC2)cc1	0.3	.	-20.6	-0.9%	20.3	.	-1.0%
